Source: PubChem BioAssay (NMMLSC)
CIT2-GFP yeast: modulators of TOR pathway CIT2-GFP in S. cerevisiae. S. cerevisiae CIT2-GFP strain, flow cytometry, 3 h; 100 means same as DMSO wells. GFP response vs DMSO, % at 10 µM. 320,000 compounds, 0.065% hits. AID 2029;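 active = GFP response relative to DMSO above a set limit, near the screen mean plus 3 SD, cut at about 150% in these data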;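 also: ratio of well median GFP fluorescence to mean of DMSO wells on the plate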
RPL19A-GFP yeast: modulators of TOR pathway RPL19A-GFP in S. cerevisiae | S. cerevisiae RPL19A-GFP strain, flow cytometry, 3 h; hits give low values | percent response vs DMSO, % at 10 µM | 330,000 compounds, 0.3% hits;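 active = percent response vs DMSO below 50%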;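 also: median channel GFP fluorescence of the barcoded RPL19A-GFP strain; ratio of sample median GFP to plate DMSO average so 100% = DMSO; lower means less RPL19A-GFP as with rapamycin TOR inhibition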
AGP1-GFP MLPCN: modulators of TOR pathway AGP1-GFP in S. cerevisiae; S. cerevisiae AGP1-GFP multiplex flow cytometry, 3 h; GFP as percent of DMSO wells; GFP response vs DMSO, % at 10 µM; 320,000 compounds, 0.02% hits; AID 2066;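 active = GFP response relative to DMSO above a set limit, near screen average plus 3 SD, cut at about 150% in these data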;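 also: median GFP channel fluorescence of the gated AGP1 strain per well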
LAP4-GFP MLPCN: modulators of TOR pathway LAP4-GFP in S. cerevisiae; AID 2023; GFP response vs DMSO, % at 10 µM; S. cerevisiae LAP4-GFP multiplex, flow cytometry GFP, 3 h; median GFP as percent of DMSO wells; 320,000 compounds, 0.34% hits;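 active = GFP response vs DMSO above a set limit, about the screen mean plus 3 SD, cut at about 150% in these data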
MEP2-GFP yeast: yeast TOR pathway MEP2-GFP modulation; S. cerevisiae MEP2-GFP strain, flow cytometry GFP, 3 h; 100% = DMSO control level; GFP response vs DMSO, % at 10 µM; 330,000 compounds, 0.51% hits;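 active = GFP response versus DMSO above a set limit, roughly screen mean plus 3 SD, cut at about 180% in these data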;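 also: median GFP fluorescence of the barcode-gated MEP2-GFP cells per well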
The depositor's hits bear a star; & = joins results of further samples.

Short keys – A = CIT2-GFP yeast; B = RPL19A-GFP yeast; C = AGP1-GFP MLPCN; D = LAP4-GFP MLPCN; E = MEP2-GFP yeast
> Cn1c(=O)c2[nH]cnc2n(C)c1=O
  A = 93; B = 96; C = 94; D = 111; E = 100

> CC(C)OC(=O)C(C)(C)Oc1ccc(C(=O)c2ccc(Cl)cc2)cc1
  A = 93; B = 104; C = 92; D = 125; E = 102

> Nc1ccc(O)cc1
  A = 75; B = 103; C = 80; D = 103; E = 101

> COc1ccc2cc([C@H](C)C(=O)O)ccc2c1
  A = 85; B = 102; C = 92; D = 116; E = 102

> O=C(O)c1c2c(nc3ccccc13)/C(=C/c1ccc(O)cc1)CC2
  A = 89; B = 99; C = 92; D = 108; E = 94

> NC1C2CN(c3nc4c(cc3F)c(=O)c(C(=O)O)cn4-c3ccc(F)cc3F)CC12 (stereo not given)
  A = 107; B = 102; C = 105; D = 104; E = 108

> C[N+]1(C)CC[C@H](OC(=O)[C@@](O)(c2ccccc2)C2CCCC2)C1
  A = 94; B = 99; C = 98; D = 102; E = 93

> O=C(c1ccccc1)c1ccccc1
  A = 85; B = 91; C = 85; D = 88; E = 75

> CCN(CC)CCNC(=O)c1ccc(N)cc1
  A = 86; B = 98; C = 86; D = 106; E = 89

> Nc1nc2c(ncn2COCCO)c(=O)[nH]1
  A = 86; B = 98; C = 90; D = 108; E = 92

> O=C(CCCN1CC=C(n2c(=O)[nH]c3ccccc32)CC1)c1ccc(F)cc1
  A = 80; B = 95; C = 85; D = 120; E = 95

> CN(C)CCOC(c1ccccc1)c1ccccc1 (tested in a mixture with another compound)
  A = 83; B = 96; C = 87; D = 102; E = 90

> COc1cc([C@@H]2c3cc4c(cc3[C@@H](O[C@@H]3O[C@@H]5CO[C@@H](C)O[C@H]5[C@H](O)[C@H]3O)[C@H]3COC(=O)[C@H]23)OCO4)cc(OC)c1O
  A = 99; B = 96; C = 87; D = 103; E = 91

> Nc1ccn([C@@H]2CS[C@H](CO)O2)c(=O)n1
  A = 103; B = 97; C = 90; D = 85; E = 83

> CCC(C)(C)C(=O)O[C@H]1C[C@@H](C)C=C2C=C[C@H](C)[C@H](CC[C@@H]3C[C@@H](O)CC(=O)O3)[C@H]21
  A = 117; B = 107; C = 101; D = 114; E = 96

Seven entries already listed, arranged by length of the SMILES, rising.
Short keys – A = CIT2-GFP yeast; B = RPL19A-GFP yeast; C = AGP1-GFP MLPCN; D = LAP4-GFP MLPCN; E = MEP2-GFP yeast
> O=C(c1ccccc1)c1ccccc1
  A = 85; B = 91; C = 85; D = 88; E = 75

> COc1ccc2cc([C@H](C)C(=O)O)ccc2c1
  A = 85; B = 102; C = 92; D = 116; E = 102

> Nc1ccn([C@@H]2CS[C@H](CO)O2)c(=O)n1
  A = 103; B = 97; C = 90; D = 85; E = 83

> O=C(O)c1c2c(nc3ccccc13)/C(=C/c1ccc(O)cc1)CC2
  A = 89; B = 99; C = 92; D = 108; E = 94

> CC(C)OC(=O)C(C)(C)Oc1ccc(C(=O)c2ccc(Cl)cc2)cc1
  A = 93; B = 104; C = 92; D = 125; E = 102

> O=C(CCCN1CC=C(n2c(=O)[nH]c3ccccc32)CC1)c1ccc(F)cc1
  A = 80; B = 95; C = 85; D = 120; E = 95

> COc1cc([C@@H]2c3cc4c(cc3[C@@H](O[C@@H]3O[C@@H]5CO[C@@H](C)O[C@H]5[C@H](O)[C@H]3O)[C@H]3COC(=O)[C@H]23)OCO4)cc(OC)c1O
  A = 99; B = 96; C = 87; D = 103; E = 91

Remaining list, next part:
Short keys – A = CIT2-GFP yeast; B = RPL19A-GFP yeast; C = AGP1-GFP MLPCN; D = LAP4-GFP MLPCN; E = MEP2-GFP yeast
> CNCC(=O)O
  A = 79; B = 93; C = 74; D = 108; E = 81

> OCCN(CCO)c1nc(N2CCCCC2)c2nc(N(CCO)CCO)nc(N3CCCCC3)c2n1
  A = 112; B = 109; C = 106; D = 98; E = 102

> Cc1nnc(SCC2=C(C(=O)O)N3C(=O)C(NC(=O)Cn4cnnn4)C3SC2)s1 (stereo not given)
  A = 98; B = 101; C = 101; D = 102; E = 95

> O=C(C1CCCCC1)N1CC(=O)N2CCc3ccccc3C2C1 (stereo not given)
  A = 84; B = 94; C = 83; D = 88; E = 99

> COc1ccc(CC(=O)Nc2ncc([N+](=O)[O-])s2)cc1OC
  A = 113; B = 97; C = 94; D = 105; E = 123

> CN1[C@@H]2CC(OC(=O)[C@H](CO)c3ccccc3)C[C@H]1[C@@H]1O[C@@H]12 (stereo not given in full)
  A = 110&91&93&81; B = 106&105&104&91; C = 112&96&98&85; D = 96&111&105&89; E = 104&101&94&97

> O=C(O)/C=C/C(=O)O
  A = 104; B = 107; C = 112; D = 102; E = 102

These rows are one share of the data. The share of hits here may be higher or lower than overall.
